From PubChem BioAssay
VACV Venus inh: inhibitors of vaccinia virus (Venus reporter) | Vaccinia virus Venus reporter expression, fluorescence | Potency, µM (highest dose often 36.5 µM), for inactives: at the top dose activity change, negative = inhibition, most hits filed as inhibitors | hit rate 0.46% among 330,000; active means well fitted inhibition curve with a large enough effect; inconclusive means small, poorly fitted or top-dose-only effect; inactive means no such curve, though single readings can be large or run the other way; tested in A549 cells; further: nearly all actives have a fitted effect of over 30% in size; inactives centre near -10
Vaccinia mCherry: vaccinia inhibition (mCherry reporter). AID 720579. Potency, µM (series often up to 36.5 µM), without a hit: at the top dose activity change, negative = inhibition, usual class: inhibitors. Vaccinia virus mCherry reporter infection, fluorescence; about a quarter of the inactives have no number. hit rate 0.63% among 310,000; active = well fitted inhibition curve with a large enough effect; inconclusive = small, poorly fitted or top-dose-only effect; inactive = no such curve, though single readings can be large or run the other way; tested in A549 cells; further: nearly all actives have a fitted effect of over 35% in size; inactives centre near -10
Starred values were filed as active, the others as inactive; i = inactive; ? = inconclusive; · = not tested or not shown; [ ] = another dose, or the depositor's remark. On the % scale 0 is the no-effect control and ±100 the full control effect; potency means the concentration at half of the fitted maximal effect.

SMILES | VACV Venus inh | Vaccinia mCherry
O=C(O)CCC(=O)N1CCN(c2nc3ccccc3s2)CC1 | -7% | ·
Cc1ccccc1N1C(=O)c2cccc3c(N(C)CCO)ccc(c23)C1=O | 69%[activator] | -8%
CCOC(=O)c1c(N)sc(=S)c2c1CCC2 | -6% | -13%
Cc1ccc(S(=O)(=O)N(C)C[C@H]2OCc3cnnn3CCCC(=O)N([C@@H](C)CO)C[C@H]2C)cc1 | -17% | 2%
CSc1nsc(SCC(=O)Nc2nncs2)n1 | -14% | -13%
CN(C)CCN(C(=O)C1CCCCC1)c1nc2cc3c(cc2s1)OCCO3 | -4% | i
CC1CCN(S(=O)(=O)c2ccc(Br)s2)CC1 | -8% | -7%
COc1ccc(N/C(=N\c2nc(C)cc(C)n2)NC(=O)C(C)C)cc1OC | -10% | -14%
CCOc1ccc2[nH]c(=O)c(CN(Cc3nnnn3CCc3ccccc3)CC3CCCO3)cc2c1 (configuration not stated) | -20% | ·
COc1cc(/C=N/NC(=O)COc2ccc([N+](=O)[O-])cc2)ccc1OCC(=O)N1CCOCC1 | -6% | ?
CCC(C(=O)NCCC1=CCCCC1)n1nc(C)c2c(C)n(-c3ccccc3)nc2c1=O (configuration not stated) | -18% | -1%
CCOc1ccc(C(CC(=O)Nc2cc(C)c(Cl)cc2OC)N2Cc3ccccc3C2=O)cc1OC (configuration not stated) | -15% | -24%
CC(C)(C)OC(=O)C[C@@H]1C/C=C\C[C@H](CC(=O)N(CCO)Cc2ccccc2)C(=O)NC[C@H](c2ccccc2)OC1=O | -17% | -4%
CC(=O)c1c(C)[nH]c(C(=O)OCC(=O)N2CCN(S(=O)(=O)c3ccc(C)cc3C)CC2)c1C | ? | -11%
CC(=O)OC(C(=O)NCc1ccc2c(c1)OCO2)c1ccccc1Cl (configuration not stated) | -4% | -10%
C=C1C(=O)C2=CC1CCC(=O)C1(C)CCC(OC(C)=O)C(C)(C)C1CC2O (configuration not stated) | 4µM* | 2.5µM*
CCCN(CCC)CCNC(=O)c1cc2c(=O)n(C)c3ccccc3c2n1C | -11% | -15%
O=C1CC(C(=O)N2CCc3ccccc32)CN1c1cccc(C(F)(F)F)c1 (configuration not stated) | -6% | -10%
COc1ccc(CSc2nnnn2-c2ccc(O)cc2)cc1F | -11% | -18%
COc1ccccc1N1CCN(C(=O)c2sc3ncnc(N4CCN(c5ccccn5)CC4)c3c2C)CC1 | -23% | -25%
COc1ccc(-c2cc(C(F)(F)F)nc(SCC(=O)N(C)Cc3cn(C)nc3C)n2)cc1OC | -19% | -23%
c1ccc(CNc2nc(-c3cccs3)nc3ccccc23)cc1 | -15% | -15%
COc1ccc(C(=O)O/N=C(\N)c2ccccn2)c(OC)c1 | -17% | -3%
COc1ccc(C(=O)NCC(c2ccc3c(c2)OCO3)N2CCN(c3ccc(F)cc3)CC2)cc1 (configuration not stated) | -22% | -21%

As a working copy, some entries already given.
SMILES | VACV Venus inh | Vaccinia mCherry
COc1ccccc1N1CCN(C(=O)c2sc3ncnc(N4CCN(c5ccccn5)CC4)c3c2C)CC1 | -23% | -25%
COc1ccc(-c2cc(C(F)(F)F)nc(SCC(=O)N(C)Cc3cn(C)nc3C)n2)cc1OC | -19% | -23%
c1ccc(CNc2nc(-c3cccs3)nc3ccccc23)cc1 | -15% | -15%
COc1ccc(C(=O)O/N=C(\N)c2ccccn2)c(OC)c1 | -17% | -3%
COc1ccc(C(=O)NCC(c2ccc3c(c2)OCO3)N2CCN(c3ccc(F)cc3)CC2)cc1 (configuration not stated) | -22% | -21%

Carrying on:
SMILES | VACV Venus inh | Vaccinia mCherry
CCOC(=O)c1ccc(NC(=O)C2CCN(S(=O)(=O)c3ccc(C)cc3)CC2)cc1 | -6% | -11%
CC(=O)OC1(Cc2ccccc2)CN2CCC1c1ccccc12 (configuration not stated) | -26% | ·
O=C(Nc1ccc(-c2nc3cccnc3s2)cc1)c1cccnc1Cl | -27% | 11%
N#CCO/N=C/C(=O)Nc1ccc(F)cc1F | -20% | -2%
Cc1ccc(C)c(SCC(=O)OCC(=O)Nc2ccc(S(=O)(=O)N3CCOCC3)cc2)c1 | -6% | -14%
CCOC(=O)c1c(C)[nH]c(C(=O)COC(=O)c2ccco2)c1C | -13% | i
COCCCN1CN(Cc2ccco2)CNC1=S | 1% | -18%
CC1(NC(=O)CC(c2ccccc2)(c2ccccc2)c2ccccc2)CCN(CCCc2ccccc2)C1=O (configuration not stated) | ? | -15%
Cc1ccc(C)c(S(=O)(=O)N/N=C/c2ccc(C(=O)O)cc2)c1 | -7% | -14%
CCN(CC)CCNc1ccc(Cl)cc1[N+](=O)[O-] | 4% | -3%
CCOc1cccc2sc(NC(=O)c3ccc(S(=O)(=O)N4CCc5ccccc54)cc3)nc12 | -11% | -14%
O=C(O)COc1ccc(Nc2ccccc2)cc1 | 1% | -5%
COC(=O)C1=C(CSc2nnnn2C)NC(=O)NC1c1cc(C)ccc1C (configuration not stated) | -21% | ·
CCC(=O)NCCC1CCc2ccc3c(c21)CCO3 (configuration not stated) | -15% | i
CCOC(=O)COc1c(-c2ccc(OC)cc2)oc2ccccc2c1=O | -2% | -12%
Cc1ccc(C)c(S(=O)(=O)N2CCN(C(=O)[C@H](Cc3ccccc3)NC(=O)c3ccco3)CC2)c1 | 2% | i
Cc1ccc2nc(C(C)(C)C)c(Cc3cccc(Cl)c3)n2c1 | -7% | i
COc1cccc2c(=O)n(CC(=O)Nc3ccc(F)cc3F)ccc12 | -12% | -12%
O=C(COc1ccccc1)Nc1sc2c(c1C(=O)NCc1cccnc1)CCCC2 | ? | -18%
CCOc1ccc(NC(=O)C(=O)N/N=C/c2ccccc2F)cc1 | 0% | -6%
COC(=O)C1=C(C(=O)OC)SC2(S1)C(C(=O)OC)=C(C(=O)OC)SC1=C2c2cc(C)cc(C)c2NC1(C)C | -1% | -9%
Cn1nnnc1SCCNS(=O)(=O)c1ccccc1 | -3% | ·
COc1cc(OC)c(NC(=O)Cn2c(SCc3ccccc3F)nc3cccnc32)cc1Cl | -15% | -13%
COCCCn1c(=O)/c(=C\c2ccccc2OC(C)C)s/c1=C(/C#N)C(=O)Nc1ccc(C(=O)O)cc1 | -6% | -5%
c1ccc2c(c1)nc(N1CCCCCC1)c1nncn12 | -26% | -25%
Cc1oc(-c2ccccc2)cc1C(=O)Nc1ccc2ccccc2c1 | 2% | -4%
Cc1c(NC(=O)c2c(O)c3ccccc3n(C)c2=O)c(=O)n(-c2ccccc2)n1C | -17% | -1%
O=C(CCc1ccccc1)NC1CC(=O)N(c2cccc(F)c2)C1 (configuration not stated) | -10% | -9%
Nc1nnc(CCS(=O)(=O)c2ccc(Br)cc2)s1 | -6% | i
N#Cc1c(N)oc(-c2ccccc2)c1-c1ccccc1 | -1% | -1%
Cc1cc(C)c(-c2c(O)c3cnn(-c4ccccc4)c3[nH]c2=O)c(C)c1 | -2% | -14%
O=C1CCCN1c1ccc(S(=O)(=O)NCCOc2ccccc2)cc1 | -19% | -30%
Nc1c(-c2ccc(Cl)cc2)cnn1C1CCS(=O)(=O)C1 (configuration not stated) | -10% | ·
COc1ccc(-c2cc3nc(C)c(C)c(N4CCN(C(=O)c5ccoc5)CC4)n3n2)cc1 | -13% | -5%
CCCCOC(=O)c1ccc(NC(=O)Cc2coc3ccc(C(C)C)cc23)cc1 | -3% | -7%
CCOC(=O)c1ccc(NC(=O)Nc2cc3c(cc2N2CCCCC2)n(CC)c(=O)n3CC)cc1 | ? | ?
NC(=O)C1Cc2ccccc2CN1S(=O)(=O)c1cccs1 (configuration not stated) | -5% | i
Cc1ccc(OCC(=O)N/N=C/C=C/c2ccco2)cc1 | -8% | -29%
CCOc1ccc2nc(SCc3ccc(OC)cc3)sc2c1 | -19% | -17%
COc1ccc(NC(=O)Nc2cccc3c2O[C@H](CN(C)C(=O)NC2CCCCC2)[C@@H](C)CN([C@H](C)CO)C3=O)cc1 | -4% | 1%
Cc1cc2ccc(Cl)nc2nc1C | -6% | -14%
O=C1c2ccc(Oc3ccc([N+](=O)[O-])cc3)cc2C(=O)N1c1ccncc1 | -8% | i
CN(C)S(=O)(=O)c1cc(NC(=O)COC(=O)CCc2ccccc2)ccc1Cl | -6% | -12%
O=C(Nc1ccc(Cl)cc1)OCc1cc(-c2ccccc2)on1 | -24% | ·
COc1ccc(-n2nnnc2C2(C)CCC(=O)N2Cc2ccccc2)cc1 (configuration not stated) | -2% | -22%
Cc1ccc(-c2cc(C(F)(F)F)n3nc(C(=O)Nc4ccon4)cc3n2)cc1C | -15% | -13%
COCC(=O)NC1CCN(S(=O)(=O)c2cccc(C(C)=O)c2)CC1 | -10% | -11%
CCOC(=O)NC(=O)CSc1nnc(C)s1 | -11% | -14%

An excerpt from above in order of SMILES length, ascending.
SMILES | VACV Venus inh | Vaccinia mCherry
CCOc1ccc2nc(SCc3ccc(OC)cc3)sc2c1 | -19% | -17%
COCC(=O)NC1CCN(S(=O)(=O)c2cccc(C(C)=O)c2)CC1 | -10% | -11%
CN(C)S(=O)(=O)c1cc(NC(=O)COC(=O)CCc2ccccc2)ccc1Cl | -6% | -12%
O=C1c2ccc(Oc3ccc([N+](=O)[O-])cc3)cc2C(=O)N1c1ccncc1 | -8% | i
COc1ccc(NC(=O)Nc2cccc3c2O[C@H](CN(C)C(=O)NC2CCCCC2)[C@@H](C)CN([C@H](C)CO)C3=O)cc1 | -4% | 1%

Gathered by group, the entries above containing a tert-butyl group (2)
SMILES | VACV Venus inh | Vaccinia mCherry
CC(C)(C)OC(=O)C[C@@H]1C/C=C\C[C@H](CC(=O)N(CCO)Cc2ccccc2)C(=O)NC[C@H](c2ccccc2)OC1=O | -17% | -4%
Cc1ccc2nc(C(C)(C)C)c(Cc3cccc(Cl)c3)n2c1 | -7% | i

Fetched by structure from the entries so far (7):
SMILES | VACV Venus inh | Vaccinia mCherry
COc1ccc(NC(=O)Nc2cccc3c2O[C@H](CN(C)C(=O)NC2CCCCC2)[C@@H](C)CN([C@H](C)CO)C3=O)cc1 | -4% | 1%
Cc1ccc(-c2cc(C(F)(F)F)n3nc(C(=O)Nc4ccon4)cc3n2)cc1C | -15% | -13%
CCOC(=O)NC(=O)CSc1nnc(C)s1 | -11% | -14%
O=C(Nc1ccc(Cl)cc1)OCc1cc(-c2ccccc2)on1 | -24% | ·
NC(=O)C1Cc2ccccc2CN1S(=O)(=O)c1cccs1 (configuration not stated) | -5% | i
O=C1c2ccc(Oc3ccc([N+](=O)[O-])cc3)cc2C(=O)N1c1ccncc1 | -8% | i
COCC(=O)NC1CCN(S(=O)(=O)c2cccc(C(C)=O)c2)CC1 | -10% | -11%

(further entries)
SMILES | VACV Venus inh | Vaccinia mCherry
O=C(NN1CCCCC1)NN1CCCCC1 | 1% | 42%[activator]
CCCN1c2cccc3cccc(c23)S1(=O)=O | -19% | -27%
CCOc1ccccc1NC(=O)Cn1c(=O)n(CCCC(=O)NCCc2ccc(C)cc2)c(=O)c2ccccc21 | 2% | -14%
Cc1nc(-n2nc(C)c(Cc3ccccc3Cl)c2C)sc1C(=O)Nc1ccccc1F | -7% | i
Cc1cc(C)cc(OCCCCn2cncn2)c1 | -2% | -6%
COC(=O)C1CCN(C(=O)COC(=O)c2cc(S(=O)(=O)N3CCOCC3)ccc2C)CC1 | -5% | -15%
COc1cc(CCC(=O)Nc2ccc(Cl)c(C(F)(F)F)c2)cc(OC)c1OC | -13% | i
Cc1cccc(-n2[nH]c(C)c(C=Nc3ccc4[nH]c(=O)[nH]c4c3)c2=O)c1 | -16% | i
O=C(/C=C/c1ccc([N+](=O)[O-])cc1)NCc1ccccn1 | -5% | i
COc1ccc(OCC(=O)NCCNC(=O)c2ccccn2)cc1 | -9% | i
C=C(C)Cn1c(C)cc(C)c(S(=O)(=O)c2cccc(C)c2)c1=O | 12% | -10%
O=C(NCc1ccc(F)cc1)C(=O)NCC(c1ccc2c(c1)OCO2)N1CCOCC1 (configuration not stated) | -9% | -7%
CCOc1ccc(Cc2nnc(SCC(=O)Nc3ccc(C(C)=O)cc3)[nH]c2=O)cc1 | -5% | -14%
O=C(CSc1nnc(Cc2cccs2)n1Cc1ccco1)Nc1ccc(Br)cc1 | -16% | ·
CCOC(=O)c1cc(-c2ccc(OC)cc2)n(CCC(=O)NCCc2ccccc2)c1C | -13% | -5%
CCCCn1c(-c2ccco2)nc2ccccc2c1=O | -11% | ·
COc1ccc(-n2cc(C(=O)Nc3cc(F)ccc3F)c3ccccc3c2=O)cc1 | -8% | -6%
COc1ccc(/C=N/NC(=O)c2cccnc2)cc1COc1ccc([N+](=O)[O-])c(C)c1 | -30% | -21%
O=C(Nc1ccc(S(=O)(=O)NC2=NCCCCC2)cc1)c1ccc2ccccc2n1 | -14% | -4%
